# Rac1 wt modul: modulators of human Rac1 wildtype GTP binding | P63000 | GST-Rac1 beads, fluorescent GTP binding, flow cytometry; actives lie on both sides; 0 = cold GTP competed, 100 = untreated | GTP binding activity (% of control), % at 10 µM | 190,000 tested, 0.27% active | AID 757;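 active = GTP binding activity at least 20 points away from the 100% control level, either lower or higher; inconclusive = compound flagged as likely green fluorescent, judged across all proteins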
# Avidin fluor: compound fluoresces at 488/530 nm on avidin beads; compound fluorescence 488/530 nm, flow cytometry; active compounds read high; fluorescence (KMESF) at 10 µM; 220,000 tested, 0.38% active; AID 1775; in the data active = fluorescence above about 47; note: inactives centre near 10
# ABCB1 block: blocks JC-1 efflux by human ABCB1 transporter; P08183; CCRF-Adr cells, flow cytometry; inhibition, % at 6.6 µM; 190,000 tested, 0.067% active; AID 1326; in the data active = inhibition above about 40%;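 note: 0% = vehicle and 100% = reference inhibitor; higher value means more JC-1 retained so stronger ABCB1 efflux block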
# HRas wt GTP: changes GTP binding to wildtype human HRas. P01112. GST-Ras wt beads, Bodipy-FL-GTP binding, flow cytometry; actives lie on both sides. GTP binding activity, % at 10 µM. 190,000 tested, 0.14% active;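 active = GTP binding activity at least 20% away from the 100% baseline, either lowered as inhibitor or raised as activator; inconclusive = flagged as likely green fluorescent, judged across all proteins in the well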;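 note: 0% = unlabeled GTP competition control and 100% = no-compound control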
# Target sequence (P01112 whole entry, looked up): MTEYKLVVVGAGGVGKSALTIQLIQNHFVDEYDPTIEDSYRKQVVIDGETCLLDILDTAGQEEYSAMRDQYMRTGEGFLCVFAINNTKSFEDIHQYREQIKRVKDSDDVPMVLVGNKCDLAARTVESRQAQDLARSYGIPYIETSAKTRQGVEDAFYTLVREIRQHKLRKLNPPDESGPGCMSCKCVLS
# Rab7 wt GTP bind: dog Rab7 wildtype GTP binding, inhibitors and activators. GST-Rab7 beads, fluorescent GTP binding, flow cytometry; actives lie on both sides; untreated = 100%, excess cold GTP = 0%. GTP binding activity (percent of control), % at 10 µM. AID 758. 190,000 tested, 0.055% active;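 active = fluorescent GTP binding to Rab7 beads changed by at least 20 points from the 100% baseline, either direction, mostly lower; inconclusive = compound itself probably fluorescent, or too few beads counted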;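 note: median green fluorescence of bound Bodipy-FL-GTP per Rab7 bead population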
# Rac1 act GTP bind: alters GTP binding to activated mutant human Rac1 | P63000 | 190,000 tested, 0.11% active | GST-Rac1 activated beads, fluorescent GTP binding, flow cytometry; actives lie on both sides; 100% means binding = to untreated wells | percent activity (GTP binding), % at 10 µM | AID 764;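 active = GTP binding at least 20 percentage points away from the 100% baseline, in either direction, so actives lie on both sides; inconclusive = Compound likely fluorescent itself, or too few beads counted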
# Rab2 wt GTP: changes GTP binding to wildtype dog Rab2A, up or down; 190,000 tested, 0.19% active; P61105; GST-Rab2 wt beads, Bodipy-GTP binding, flow cytometry; GTP binding activity, % at 10 µM;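 active = GTP binding activity at least 20 points away from 100%, either lowered or raised; inconclusive = signal likely due to the compound's own green fluorescence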;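 note: 0% = beads with excess unlabeled GTP and 100% = no-compound control corrected for plate trend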
# Cdc42 wt GTP: changes GTP binding to wildtype human Cdc42; P60953; GST-Cdc42 beads, Bodipy-GTP binding, flow cytometry; actives lie on both sides; percent activity (GTP binding), % at 10 µM; 190,000 tested, 0.2% active;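 active = percent activity GTP binding at least 20 points away from the 100% baseline, either down as inhibitor or up as activator; inconclusive = compound flagged as likely green fluorescent from well-wide comparison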;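 note: median bead fluorescence of bound Bodipy-FL-GTP at 100 nM; 0% = excess unlabeled GTP control and 100% = no compound control; below 100% means less GTP binding so inhibitor and above means activator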
# Target sequence (P60953 whole entry, looked up): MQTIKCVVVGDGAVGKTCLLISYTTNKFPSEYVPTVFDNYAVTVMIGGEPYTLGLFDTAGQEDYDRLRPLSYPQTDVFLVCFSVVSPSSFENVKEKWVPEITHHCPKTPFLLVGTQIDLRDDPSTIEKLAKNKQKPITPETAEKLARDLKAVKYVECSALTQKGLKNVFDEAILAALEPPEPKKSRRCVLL
# ABCG2 block: human ABCG2 inhibition, ABCB1 as counter-screen; IgMXP3 cells, JC-1 efflux, flow cytometry; inhibition, % at 6.6 µM; 190,000 tested, 0.1% active; Q9UNQ0;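 active = inhibition above 80%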;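 note: 0% = DMSO and 100% = nicardipine control wells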
# Target sequence (Q9UNQ0 whole entry, looked up): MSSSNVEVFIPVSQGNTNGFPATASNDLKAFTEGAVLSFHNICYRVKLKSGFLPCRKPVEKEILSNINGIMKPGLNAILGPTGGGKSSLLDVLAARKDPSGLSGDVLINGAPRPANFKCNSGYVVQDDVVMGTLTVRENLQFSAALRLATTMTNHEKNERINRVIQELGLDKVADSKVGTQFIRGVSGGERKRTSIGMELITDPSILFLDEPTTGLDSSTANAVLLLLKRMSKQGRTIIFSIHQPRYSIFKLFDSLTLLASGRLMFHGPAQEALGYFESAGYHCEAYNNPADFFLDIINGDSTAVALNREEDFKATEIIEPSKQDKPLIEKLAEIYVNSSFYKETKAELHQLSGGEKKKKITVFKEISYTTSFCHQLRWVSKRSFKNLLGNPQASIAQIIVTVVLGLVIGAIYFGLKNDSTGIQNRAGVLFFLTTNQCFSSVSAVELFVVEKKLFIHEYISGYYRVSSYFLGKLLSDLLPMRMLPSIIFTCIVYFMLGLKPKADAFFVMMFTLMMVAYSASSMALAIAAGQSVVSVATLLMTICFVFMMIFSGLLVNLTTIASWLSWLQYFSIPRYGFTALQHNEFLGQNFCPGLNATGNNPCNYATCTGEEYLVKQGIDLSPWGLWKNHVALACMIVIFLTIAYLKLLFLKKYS
#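 Test system: ABCG2 IgMXP3 and barcoded ABCB1 CCRF-Adr cell mix; Schedule: cells with compound and JC-1, 10 min at 25 °C, rotating, no wash; Technique: flow cytometry of retained JC-1 fluorescence; Measure: % inhibition of efflux relative to nicardipine and DMSO; Controls: nicardipine high and DMSO low controls.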
# Pf gamet viab: kills late stage P. falciparum gametocytes | P. falciparum stage V gametocytes, ATP luminescence, 24 h | AID 743093 | inhibition, % at 10.9 µM | 150,000 tested, 0.065% active;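 active = inhibition above the mean plus 3 SD of compounds within the control limits, set per campaign, cut at about 38% in these data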;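 note: 0% = DMSO wells and 100% = medium only without gametocytes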
# Starred values were filed as active, the others as inactive; u = inconclusive; x = no result given.
SMILES,Rac1 wt modul,Avidin fluor,ABCB1 block,HRas wt GTP,Rab7 wt GTP bind,Rac1 act GTP bind,Rab2 wt GTP,Cdc42 wt GTP,ABCG2 block,Pf gamet viab
COc1cc(/C=N/NC(N)=O)ccc1OCC(=O)Nc1cc(C)c(C)cc1Br,95.0,11,-0.3,99.0,101.0,95.0,99.0,95.0,-0.2,-20.7
CCCCn1nnnc1NCc1cc(OC)c(OC)cc1OC,94.0,16,-3.3,95.0,94.0,95.0,95.0,95.0,0.0,x
Nc1ccc(C(=O)OC2CCOC2=O)cc1[N+](=O)[O-] (stereo not given),102.0,12,-1.9,98.0,99.0,96.0,99.0,101.0,-3.4,23.6
CN1C(=O)C(CC(=O)Nc2ccc(Cl)cc2)N(Cc2ccco2)C1=S (stereo not given),95.0,9,-0.2,94.0,95.0,96.0,96.0,98.0,-0.1,-14.8
Cc1c(/C=N/NC(=O)c2ccc(O)cc2)c2ccccn2c1C(=O)c1ccc(F)cc1,97.0,12,-2.1,96.0,97.0,99.0,93.0,102.0,-24.0,x
COc1cc(/C=N\NC(=O)CN2CCOCC2)ccc1OCC(=O)Nc1ccc(C)c(C)c1,96.0,9,0.2,101.0,102.0,95.0,97.0,100.0,4.8,x
COc1ccc(/C=N/Nc2nc(-c3ccc(Cl)cc3)cc(C(F)(F)F)n2)c(OC)c1,103.0,1,-0.6,103.0,99.0,102.0,99.0,99.0,-3.5,x
CC1(OC(=O)CCc2ccccc2)C(=O)C=C2C=C(c3ccsc3)OC=C2C1=O (stereo not given),x,9,x,x,x,x,x,x,x,x
COc1nc(N/N=C/c2ccc(-c3cccc([N+](=O)[O-])c3)o2)nc(N2CCOCC2)n1,99.0,10,0.5,95.0,97.0,97.0,95.0,98.0,9.7,x
COC(=O)C(NC(C)=O)(Nc1sc2c(c1C(N)=O)CCCC2)C(F)(F)F (stereo not given),101.0,12,-0.3,100.0,97.0,99.0,98.0,101.0,-0.8,10.0
CCOc1cccc(C(=O)Nc2cccc(C(=O)NC(C)(C)C)c2)c1,105.0,12,0.8,103.0,101.0,104.0,103.0,99.0,5.3,x
Cc1cccc(NC(=O)c2ccccc2OCC(=O)c2ccccc2)c1,104.0,12,17.6,100.0,104.0,99.0,100.0,101.0,75.2,-13.3
COC(=O)CCC(=O)OC1(C)C(=O)C=C2C=C(C3CC3)N(Cc3ccccc3)C=C2C1=O (stereo not given),x,8,x,x,x,x,x,x,x,x
O=C(OCc1cccc2ccccc12)c1ccc2c(=O)[nH]c(CN3CCOCC3)nc2c1,u,-6,0.6,u,u,u,u,u,1.6,x
O=C(Nc1ccc2oc(=O)ccc2c1)c1ccc(-c2ccccc2[N+](=O)[O-])o1,x,5,x,x,x,x,x,x,x,-3.6
Cc1c(C(=O)Nc2ccc3c(c2)OCO3)sc2ncn(CC(=O)N3CC(C)CC(C)C3)c(=O)c12 (stereo not given),96.0,0,-0.1,97.0,96.0,97.0,96.0,95.0,-0.2,x
COc1ccc2cc(/C=N/NC(=O)CSCc3ccc([N+](=O)[O-])cc3)c(Cl)nc2c1,98.0,8,0.4,101.0,101.0,94.0,96.0,101.0,4.0,-11.3
Cc1sc2nc(CSc3ccccc3)nc(NCCN(C)C)c2c1C,108.0,16,1.8,104.0,102.0,101.0,103.0,103.0,-0.7,x
COc1cccc(NC(=O)CN(C)C(=O)COc2ccc3ccccc3c2)c1,103.0,10,0.0,101.0,101.0,98.0,96.0,103.0,9.8,x
CN(c1ccccc1)c1nc(N2CCCC2)nc(-n2ccnc2)n1,93.0,22,0.1,92.0,92.0,92.0,93.0,89.0,0.3,x
COC(=O)c1ccc(-n2cc(-c3ccc(OC)cc3)[nH]c2=S)cc1,100.0,2,0.7,96.0,97.0,102.0,96.0,99.0,6.7,9.7
CCN(CC)S(=O)(=O)c1ccc(C)c(C(=O)Oc2cccc(-c3cnc4ccccc4n3)c2)c1,101.0,3,-1.3,98.0,98.0,97.0,95.0,101.0,-4.8,x
COc1ccc(OC)c(/C=C2\S/C(=N/NC(=O)c3ccc4ccccc4c3)NC2=O)c1,93.0,23,-2.7,92.0,93.0,89.0,91.0,95.0,-23.6,-15.2
NC(=O)[C@H]1CC2(CC(c3cccc(NC(=O)[C@H]4CCC(=O)N4)c3)=NO2)CN1C(=O)c1ccccc1 (stereo not given in full),x,8,x,x,x,x,x,x,x,10.4
Cc1ccc(-n2c(O)cnc2Nc2nc(C)cc(C)n2)cc1,98.0,17,0.8,99.0,97.0,97.0,100.0,101.0,3.8,x
O=C(O)c1cc(-c2ccco2)nn1-c1ccc(Cl)cc1,86.0,11,-0.4,88.0,94.0,81.0,86.0,82.0,-1.3,0.5
COc1ccc(-c2nnc(-c3ccc(N(C)C)cc3)o2)cc1,93.0,10,0.6,94.0,91.0,93.0,94.0,94.0,19.6,-3.5
O=C(CSCc1ccccc1Br)N/N=C/c1ccc(OCC(=O)N2CCCCC2)cc1,104.0,12,1.5,101.0,102.0,100.0,98.0,101.0,8.2,2.6
COc1ccc(-n2nc(C(=O)NCc3ccco3)c3c4ccccc4n(C)c3c2=O)cc1,104.0,9,0.0,100.0,97.0,99.0,101.0,100.0,-8.1,x
Cc1ccc(-c2nc3c(c(=O)[nH]c(=O)n3Cc3ccccc3)n2Cc2ccccc2)o1,101.0,6,0.5,99.0,98.0,95.0,96.0,97.0,3.9,x
O=[N+]([O-])c1cc(-c2n[nH]c(-c3ccccc3)n2)cc([N+](=O)[O-])c1,100.0,21,0.4,97.0,98.0,97.0,96.0,100.0,78.6,-15.9
CC(C)(C)n1nnnc1CN1CCN2CCCC2C1 (stereo not given),105.0,17,0.9,102.0,103.0,101.0,100.0,104.0,2.1,-17.0
CCOC(=O)N1CCN(C(=S)NC2CCCCC2)CC1,101.0,9,0.2,99.0,98.0,99.0,101.0,102.0,10.3,-3.3
Cc1ccc(-n2c(=O)[nH]c3c(C(N)=O)nc(-c4ccc(C)o4)nc32)cc1,95.0,36,0.2,96.0,97.0,93.0,94.0,96.0,1.5,x
O=c1cc(O)nc(SCc2ccccc2Cl)[nH]1,105.0,7,-0.1,98.0,99.0,93.0,95.0,99.0,0.0,5.9
O=C1OC(c2ccc(Cl)cc2)=N/C1=C\C=C\c1ccco1,92.0,23,-0.9,100.0,107.0,93.0,94.0,92.0,-1.6,3.5
Cc1ccc(C(=O)N(C)c2nnc(-c3ccncc3)s2)cc1,101.0,10,0.6,97.0,104.0,97.0,96.0,96.0,4.6,16.5
COc1ccc2[nH]c3nc(SCc4nnc(-c5ccc(C)cc5)o4)nnc3c2c1,89.0,5,0.6,89.0,89.0,91.0,89.0,92.0,1.2,x
COc1ccccc1OCC(=O)Nc1ccc(CSc2ccccc2)cc1C,102.0,13,0.5,101.0,103.0,99.0,99.0,100.0,4.5,x
COc1ccc(OC)c(CN(CCCN2CCOCC2)S(=O)(=O)c2ccc(NC(C)=O)cc2)c1,93.0,14,0.2,96.0,96.0,92.0,94.0,97.0,6.0,-37.0
Cc1nn(-c2ccccc2)c2[nH]c(=O)c(CNCC3CCCO3)cc12 (stereo not given),98.0,43,0.8,98.0,98.0,95.0,98.0,98.0,5.3,5.5
CCOCc1[nH]c(=S)[nH]c(=O)c1Cc1ccc(OC(C)C)cc1,u,11,0.0,u,u,u,u,u,-0.9,-6.9
CCOc1ccc(N=C2NC(=O)S/C2=C\c2ccc(Cl)cc2)cc1,103.0,9,0.1,102.0,101.0,100.0,104.0,103.0,0.8,-19.0
NC(=O)C(c1ccc(Sc2ccccc2)nn1)c1ccc(Cl)cc1Cl (stereo not given),108.0,38,0.5,104.0,100.0,102.0,103.0,108.0,0.9,x
Oc1oc(-c2ccco2)nc1C=Nc1ccccc1,102.0,8,0.0,103.0,98.0,100.0,104.0,105.0,0.7,-3.2
c1ccc(-c2cnc(-c3cccnc3)o2)cc1,u,34,0.6,u,u,u,u,u,3.2,18.3
COc1ccc(S(=O)(=O)N(CCCN2CCOCC2)Cc2cccc3ccccc23)cc1,103.0,16,10.8,103.0,97.0,102.0,102.0,103.0,10.1,x
C=CCSc1n[nH]c(-c2cccs2)n1,x,7,x,x,x,x,x,x,x,x
N#Cc1ccc(/C=N/NC(=O)c2ccccc2F)cc1,102.0,10,0.8,98.0,98.0,98.0,99.0,104.0,20.9,21.7
Cc1cc(N/N=C\c2ccc(Br)cc2)nc(-n2nc(C)cc2C)n1,x,4,x,x,x,x,x,x,x,-0.7
COc1ccc(-c2nnc(-c3ccc(OCC(C)C)cc3)o2)cc1,101.0,15,0.5,102.0,102.0,99.0,99.0,101.0,7.5,x
CC(NC(=O)Cc1cccs1)c1ccccc1 (stereo not given),99.0,13,0.2,98.0,102.0,94.0,98.0,96.0,0.8,x

# Nine entries from above, arranged by formula weight, low to high:
SMILES,Rac1 wt modul,Avidin fluor,ABCB1 block,HRas wt GTP,Rab7 wt GTP bind,Rac1 act GTP bind,Rab2 wt GTP,Cdc42 wt GTP,ABCG2 block,Pf gamet viab
O=c1cc(O)nc(SCc2ccccc2Cl)[nH]1,105.0,7,-0.1,98.0,99.0,93.0,95.0,99.0,0.0,5.9
O=C1OC(c2ccc(Cl)cc2)=N/C1=C\C=C\c1ccco1,92.0,23,-0.9,100.0,107.0,93.0,94.0,92.0,-1.6,3.5
Cc1cccc(NC(=O)c2ccccc2OCC(=O)c2ccccc2)c1,104.0,12,17.6,100.0,104.0,99.0,100.0,101.0,75.2,-13.3
COC(=O)C(NC(C)=O)(Nc1sc2c(c1C(N)=O)CCCC2)C(F)(F)F (stereo not given),101.0,12,-0.3,100.0,97.0,99.0,98.0,101.0,-0.8,10.0
COc1ccccc1OCC(=O)Nc1ccc(CSc2ccccc2)cc1C,102.0,13,0.5,101.0,103.0,99.0,99.0,100.0,4.5,x
Cc1ccc(-c2nc3c(c(=O)[nH]c(=O)n3Cc3ccccc3)n2Cc2ccccc2)o1,101.0,6,0.5,99.0,98.0,95.0,96.0,97.0,3.9,x
Cc1c(/C=N/NC(=O)c2ccc(O)cc2)c2ccccn2c1C(=O)c1ccc(F)cc1,97.0,12,-2.1,96.0,97.0,99.0,93.0,102.0,-24.0,x
O=C(OCc1cccc2ccccc12)c1ccc2c(=O)[nH]c(CN3CCOCC3)nc2c1,u,-6,0.6,u,u,u,u,u,1.6,x
NC(=O)[C@H]1CC2(CC(c3cccc(NC(=O)[C@H]4CCC(=O)N4)c3)=NO2)CN1C(=O)c1ccccc1 (stereo not given in full),x,8,x,x,x,x,x,x,x,10.4

# A portion of the library, so the mix of outcomes need not match the whole.
